# Screening data: PubChem BioAssay, Broad Institute
# BJeLR viab HTS: BJeLR cell viability loss, primary screen, luminescence, CellTiterGlo ATP; BJeLR fibroblasts viability, 48 h; HRASV12, hTERT and SV40 LT/ST transformed; viability loss activity score, % (test concentration not listed); 30,000 compounds, 0.64% hits; in the data active = viability loss activity score above about 50%; about a fifth of its hits are not listed in these tables;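 note: higher score means fewer live cells and less ATP luminescence; stock transfer was 50 or 100 nL into about 30 µL; 0% = vehicle wells and 100% = a reference killing control; one replicate is shown; the record names a cut of 85%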
# A1 inh: inducers of caspase activity in MEF A1-2A-BIM cells, primary screen, A1 inhibitor project, cell-based, CaspaseGlo luminescence. caspase-Glo luminescence, 3 h; percent of clofoctol signal, DMSO as zero. AID 2241, 2010. caspase activation, % (no concentration beside the values). 21,000 compounds, 0.51% hits;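 active = most replicate scores above 10, or exactly half above 10 with mean activity above 10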;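 note: effector caspase 3 and 7 activity cleaving a DEVD luciferin substrate; 50 nL library stock added to about 30 µL; numbers are from one replicate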
# Starred values were filed as active, the others as inactive; nt = no result given. Some of the compounds tested; count on the stated rates, not on these rows.
SMILES,BJeLR viab HTS,A1 inh
C[C@H]1CN([C@@H](C)CO)C(=O)c2cccc(NC(=O)Nc3ccccc3)c2O[C@H]1CN(C)Cc1ccncc1,-0.8,nt
O=C(NCCN1C(=O)C2C3C=CC(C3)C2C1=O)Nc1cccnc1 (stereo unspecified),-3.1,0.6
COc1ccc(NC(=O)N(C)C[C@H]2Oc3ccc(NC(=O)CCC(F)(F)F)cc3C(=O)N([C@H](C)CO)C[C@H]2C)cc1,7.9,0.4
CNC(=O)c1ccc(Oc2ccc(C(=O)NC)cc2)cc1,2.6,1.6
Cc1ccc(Cc2c(C)nc3c(C(=O)NC4CCCC4)cnn3c2C)cc1,-5.0,-0.3
CC(C)NCC(O)c1ccc2ccccc2c1 (stereo unspecified),1.2,0.4
O=C(Nc1cc(C(=O)Nc2ccccc2O)cc(C(=O)Nc2ccccc2O)c1)c1ccccc1,-2.5,-0.7
CCCOC(=O)c1cc2ccccc2oc1=O,5.6,-1.8
COc1ccc(S(=O)(=O)N(C)C[C@H]2Oc3c(NC(=O)C4CCCCC4)cccc3C(=O)N([C@@H](C)CO)C[C@@H]2C)cc1,-1.0,nt
Cc1ccc(CNC(=O)CCS(=O)(=O)c2ccc(Br)s2)cc1,-5.7,nt
c1ccc(-c2nc(C34CC5CC(CC(C5)C3)C4)co2)cc1,1.5,0.6
COc1ccc(C#N)cc1Br,-1.3,-0.7
C[C@H](CO)N1C[C@H](C)[C@H](CN(C)S(=O)(=O)c2cn(C)cn2)Oc2c(NC(=O)c3cnccn3)cccc2C1=O,2.6,nt
C=C1C(=O)OC2C3=C(C)C(=O)CC3C(C)CC(O)C12 (stereo unspecified),-5.8,-0.3
C[C@H]1CN([C@@H](C)CO)C(=O)c2cc(NC(=O)Nc3cccc4ccccc34)ccc2O[C@@H]1CN(C)S(=O)(=O)c1cccs1,2.6,-0.6
C[C@H]1CN([C@@H](C)CO)C(=O)c2cccc(NS(=O)(=O)c3cn(C)cn3)c2O[C@@H]1CN(C)C(=O)Nc1cccc2ccccc12,-13,nt
Cc1noc(C)c1NC(=O)N(C)C[C@@H]1Oc2c(NC(=O)c3nc4ccccc4s3)cccc2C(=O)N([C@H](C)CO)C[C@@H]1C,-1.9,nt
CCn1cc(C(=O)O)c(=O)c2cnc(N3CCCC3)nc21,0.9,0.5
C[C@@H]1CN([C@@H](C)CO)C(=O)c2cc(NC(=O)C3CCCCC3)ccc2O[C@@H]1CN(C)Cc1ccc(C(=O)O)cc1,-0.1,0.0
CC(C)NC(=O)N(C)C[C@H]1Oc2c(NS(=O)(=O)c3cccs3)cccc2C(=O)N([C@H](C)CO)C[C@H]1C,5.6,nt
COc1ccc(CCNC(=O)CC(c2ccccc2)c2cc(Br)ccc2O)cc1OC (stereo unspecified),0.7,-1.4
CC(C)c1ccc(C2C3=C(CCCC3=O)NC3=C2C(=O)c2ccccc23)cc1 (stereo unspecified),-8.3,nt
COC(=O)C1(Cc2ccc(O)cc2)OC(=O)C(=O)C1c1ccc(O)cc1 (stereo unspecified),-1.0,-0.7
C[C@H](CO)N1C[C@H](C)[C@H](CN(C)C(=O)NC2CCCCC2)Oc2ccc(NC(=O)C3CCCCC3)cc2C1=O,-2.0,-0.1
CCOC(=O)c1sc(/S(C)=N/C(=O)Nc2ccccc2Cl)c2c1CCC=C2 (stereo unspecified),-4.4,-0.4

# Reformatted: seven of the compounds above
canonical_smiles	BJeLR viab HTS	A1 inh
C=C1C(=O)OC2C3=C(C)C(=O)CC3C(C)CC(O)C12 (stereo unspecified)	-5.8	-0.3
C[C@H]1CN([C@@H](C)CO)C(=O)c2cc(NC(=O)Nc3cccc4ccccc34)ccc2O[C@@H]1CN(C)S(=O)(=O)c1cccs1	2.6	-0.6
C[C@H]1CN([C@@H](C)CO)C(=O)c2cccc(NS(=O)(=O)c3cn(C)cn3)c2O[C@@H]1CN(C)C(=O)Nc1cccc2ccccc12	-13	nt
Cc1noc(C)c1NC(=O)N(C)C[C@@H]1Oc2c(NC(=O)c3nc4ccccc4s3)cccc2C(=O)N([C@H](C)CO)C[C@@H]1C	-1.9	nt
CCn1cc(C(=O)O)c(=O)c2cnc(N3CCCC3)nc21	0.9	0.5
C[C@@H]1CN([C@@H](C)CO)C(=O)c2cc(NC(=O)C3CCCCC3)ccc2O[C@@H]1CN(C)Cc1ccc(C(=O)O)cc1	-0.1	0.0
CC(C)NC(=O)N(C)C[C@H]1Oc2c(NS(=O)(=O)c3cccs3)cccc2C(=O)N([C@H](C)CO)C[C@H]1C	5.6	nt

# Other records
SMILES,BJeLR viab HTS,A1 inh
O=c1c2c(-c3cccs3)csc2[nH]c(=S)n1-c1ccccc1,-5.5,-0.1
O=C1CSc2ccc(C(=O)NC3CCCCCC3)cc2N1,-2.1,-0.3
C[C@@H]1CN([C@@H](C)CO)C(=O)c2cc(NS(=O)(=O)c3ccccc3)ccc2O[C@H]1CN(C)C(=O)Nc1ccc2c(c1)OCO2,1.3,1.1
COc1ccc(NC(=O)Nc2ccc3c(c2)C(=O)N([C@H](C)CO)C[C@@H](C)[C@H](CN(C)C(=O)Nc2ccc(C(F)(F)F)cc2)O3)cc1,1.6,-0.7
Cc1noc(C)c1S(=O)(=O)Nc1ccc2c(c1)C(=O)N([C@@H](C)CO)C[C@@H](C)[C@@H](CN(C)Cc1ccc(C(=O)O)cc1)O2,1.6,-0.5
CCCNC(=O)C(C)n1c2ccccc2c2cnn(C)c(=O)c21 (stereo unspecified),-1.2,-1.0
O=C(Cn1c(-c2ccccn2)nc2ccccc21)NCCCn1ccnc1,-0.7,nt
COc1ccc(CN(C)C[C@H]2Oc3ccc(NC(=O)CCC(F)(F)F)cc3C(=O)N([C@@H](C)CO)C[C@H]2C)cc1,-8.1,1.5
C[C@@H]1CN([C@@H](C)CO)C(=O)c2cccc(NC(=O)c3cnccn3)c2O[C@@H]1CN(C)CC1CC1,-4.1,nt
CCCN(CCC)C(=O)c1cc(OC)cc(OC)c1,-2.4,0.1
CC(C)NC(=O)Nc1ccc2c(c1)C(=O)N([C@@H](C)CO)C[C@@H](C)[C@@H](CN(C)Cc1ccccc1)O2,-3.6,-0.7
C[C@H](CO)N1C[C@H](C)[C@@H](CN(C)C(=O)Nc2ccc(F)cc2)Oc2c(NS(C)(=O)=O)cccc2C1=O,-1.6,nt
Cc1ccc(S(=O)(=O)N2CCc3ccccc3C2)cc1,0.8,-0.3
C[C@H](CO)N1C[C@H](C)[C@@H](CN(C)C(=O)Nc2cccc3ccccc23)Oc2ccc(NC(=O)Nc3cccc4ccccc34)cc2C1=O,-1.5,-0.1
C=C[C@@](C)(O)CCC1C(=C)CCC2[C@@](C)(CO)CCC[C@]12C (stereo partly specified),-2.9,-0.6
CNC[C@H]1Oc2c(NC(=O)Nc3ccc(C(F)(F)F)cc3)cccc2C(=O)N([C@@H](C)CO)C[C@H]1C,5.2,nt
C[C@@H]1CN([C@@H](C)CO)C(=O)c2cc(NC(=O)c3ccncc3)ccc2O[C@@H]1CN(C)Cc1ccc(Oc2ccccc2)cc1,-2.5,-0.3
C=C1C[C@@]23C[C@H]4C5[C@@]6(C)CC(=O)C[C@]57C(C2C(O)[C@H]1C(O)C37)N4C6 (stereo partly specified),0.9,0.7
CC(C)(C)[C@H]1COC(CC2=N[C@@H](C(C)(C)C)CO2)=N1,-0.5,-0.1
C[C@@H]1CN([C@H](C)CO)C(=O)c2cccc(NC(=O)C3CC3)c2O[C@@H]1CN(C)C(=O)Nc1ccc(F)cc1,-3.7,nt
OC[C@H]1O[C@@H](Oc2ccc3c(c2)OC[C@H]2c4cc5c(cc4O[C@@H]32)OCO5)[C@H](O)[C@@H](O)[C@@H]1O,-3.0,0.5
COc1cccc2sc(=NC(=O)Cc3cccc4ccccc34)n(C)c12,5.2,10*
COc1ccc(NC(=O)N(C)C[C@H]2Oc3c(NS(=O)(=O)c4ccc(Cl)cc4)cccc3C(=O)N([C@H](C)CO)C[C@H]2C)cc1,4.0,nt
O=C(NC1CCCC1)c1ccccc1,2.0,-0.3
COc1ccc(S(=O)(=O)N(C)C[C@@H]2Oc3c(NS(=O)(=O)c4c(C)noc4C)cccc3C(=O)N([C@@H](C)CO)C[C@@H]2C)cc1,-2.9,nt

# Ordered by formula weight (largest number first): some entries from above
SMILES,BJeLR viab HTS,A1 inh
C[C@H](CO)N1C[C@H](C)[C@@H](CN(C)C(=O)Nc2cccc3ccccc23)Oc2ccc(NC(=O)Nc3cccc4ccccc34)cc2C1=O,-1.5,-0.1
C[C@@H]1CN([C@@H](C)CO)C(=O)c2cc(NC(=O)c3ccncc3)ccc2O[C@@H]1CN(C)Cc1ccc(Oc2ccccc2)cc1,-2.5,-0.3
O=C(NC1CCCC1)c1ccccc1,2.0,-0.3

# Further structures follow:
SMILES,BJeLR viab HTS,A1 inh
COc1ccc(S(=O)(=O)N(C)C[C@H]2Oc3c(NS(=O)(=O)c4ccc(Cl)cc4)cccc3C(=O)N([C@H](C)CO)C[C@@H]2C)cc1,3.1,nt
OC(c1ccccc1)c1nnc(SCc2ccc(Br)cc2)n1-c1ccccc1 (stereo unspecified),0.2,0.3
O=C(CNC(=S)N(Cc1ccccc1)Cc1cccs1)NC1CCCCC1,-1.5,-0.6
CC(C)n1cc(-c2nc(C(=O)NN)cs2)c(=O)n(Cc2ccccc2)c1=O,5.2,1.1
C[C@H]1CN([C@@H](C)CO)C(=O)c2cc(NC(=O)CCC(F)(F)F)ccc2O[C@H]1CN(C)S(C)(=O)=O,0.2,1.5
Cc1ccc(S(=O)(=O)Nc2cccc3c2O[C@@H](CN(C)S(=O)(=O)c2ccccc2)[C@@H](C)CN([C@H](C)CO)C3=O)cc1,-2.9,nt
CNC(=O)COc1ccc(NC(=O)CCn2nc(-c3ccc(Cl)cc3)c3ccccc3c2=O)cc1,-8.1,1.0
CCOC(=O)C(C)n1cnc2c(nnn2Cc2ccc(C)cc2)c1=O (stereo unspecified),-7.8,0.6
COc1ccc(NC(=O)Nc2ccc3c(c2)C(=O)N([C@@H](C)CO)C[C@H](C)[C@H](CN(C)C(=O)Nc2cccc4ccccc24)O3)cc1,-2.5,0.3
C[C@H](CO)N1C[C@H](C)[C@H](CN(C)C(=O)Nc2cccc3ccccc23)Oc2c(NS(=O)(=O)c3cccs3)cccc2C1=O,1.3,nt
C[C@H]1CN([C@@H](C)CO)C(=O)c2cc(NC(=O)CCN3CCOCC3)ccc2O[C@H]1CN(C)Cc1ccccc1,1.9,-0.3
Cn1c(/C(C#N)=C(/O)c2ccc(F)cc2)nc2ccccc21,1.9,-3.0
C[C@@H]1CN([C@H](C)CO)C(=O)c2cccc(NS(=O)(=O)c3cn(C)cn3)c2O[C@@H]1CN(C)Cc1ccc(-c2ccccc2)cc1,-5.1,nt
C[C@H](CO)N1C[C@H](C)[C@H](CN(C)C(=O)Nc2ccc(F)cc2)Oc2ccc(NC(=O)Cc3cn(C)c4ccccc34)cc2C1=O,-1.4,0.8
O=C(NCc1ccc2c(c1)OCO2)c1ccc2c(=O)n(Cc3ccccc3)c(=S)[nH]c2c1,11,-2.0
C[C@H](CO)N1C[C@H](C)[C@H](CN(C)S(=O)(=O)c2ccc(F)cc2)Oc2ccc(NC(=O)Nc3ccccc3)cc2C1=O,1.4,0.0
CC(C)(C)SCCNc1nc(Oc2ccc(F)cc2)nc(Oc2ccc(F)cc2)n1,0.9,0.8
CC1CCC2(C(=O)OC3OC(CO)C(O)C(O)C3O)CCC3(C(=O)O)C(=CCC4C5(C)CCC(O)C(C)(C)C5CCC43C)C2C1C (stereo unspecified),-6.2,-0.3
Cc1ccc2c(c1)c1c(n2CC(O)CN2C(=O)CNC2=O)C(=O)CCC1 (stereo unspecified),0.7,0.5
C[C@H](CO)N1C[C@H](C)[C@@H](CN(C)S(=O)(=O)c2cn(C)cn2)Oc2c(NC(=O)NC3CCCCC3)cccc2C1=O,-3.2,nt
CCOc1cc(/C=C2\SC(=O)N(Cc3ccc(F)cc3)C2=O)ccc1O,-6.9,-0.5
COc1ccc2nc3oc(C(=O)NCCC4=CCCCC4)cc3cc2c1,-2.9,nt
C[C@@H]1CN([C@@H](C)CO)C(=O)c2cc(NC(=O)Nc3cccc4ccccc34)ccc2O[C@H]1CN(C)Cc1ccncc1,1.2,-0.6
CC(NC(=O)c1cccc(C(=O)NC(C)c2ccccc2)c1)c1ccccc1 (stereo unspecified),1.7,0.2
Cc1noc(C)c1S(=O)(=O)Nc1ccc2c(c1)C(=O)N([C@H](C)CO)C[C@H](C)[C@H](CN(C)S(=O)(=O)c1cn(C)cn1)O2,-2.4,-0.1

# (more compounds)
SMILES,BJeLR viab HTS,A1 inh
Cc1noc(C)c1S(=O)(=O)Nc1ccc2c(c1)C(=O)N([C@H](C)CO)C[C@H](C)[C@H](CN(C)Cc1ccc(C(F)(F)F)cc1)O2,0.0,-0.1
COc1ccc(NC(=O)Nc2ccc3c(c2)C(=O)N([C@@H](C)CO)C[C@H](C)[C@@H](CN(C)C(=O)Nc2ccc(OC)cc2)O3)cc1,-3.4,1.1
C[C@@H]1CN([C@H](C)CO)C(=O)c2cc(NS(=O)(=O)c3cn(C)cn3)ccc2O[C@@H]1CN(C)Cc1ccc(C(F)(F)F)cc1,1.7,0.1
Cc1ccc(S(=O)(=O)Nc2ccc3c(c2)C(=O)N([C@@H](C)CO)C[C@@H](C)[C@H](CN(C)C(=O)Nc2cccc4ccccc24)O3)cc1,-3.1,-0.4
C[C@H]1CN([C@@H](C)CO)C(=O)c2cc(NC(=O)Nc3ccc(F)cc3)ccc2O[C@H]1CN(C)C(=O)Nc1ccccc1,1.4,1.1
COc1ccc(C2(C(=O)Nc3ccc(C)cc3)CCCC2)cc1OC,-0.9,-0.7
CCc1ccc(NS(=O)(=O)c2ccc3c(c2)SC(C)C(=O)N3)cc1 (stereo unspecified),-4.1,0.0
